Screening results (PubChem)
NPYLR7 ag – agonists of mosquito NPYLR7 receptor, primary screen, cell-based, Aedes aegypti, calcium fluorescence, mosquito biting behavior | HEK293T NPYLR7/Galpha15, GCaMP6s calcium fluorescence | activation, % at 10 µM | 270,000 tested, 0.15% active; in the data active = activation above about 40%;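 also: 0% = vehicle and 100% = reference agonist at the receptor; some compounds past the cut are filed as inactive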
NPYLR7 ag max-min – second read-out of NPYLR7 ag, no call of its own (marks repeat the call); activation, %; measured here: Max-Min RFU normalised activation; some inactives read as strong as hits;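 span of the calcium signal over five minutes; 0% = vehicle and 100% = native peptide agonist; compound fluorescence can raise it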
* = called active by the depositor; & = joins results of further samples.

Compound | NPYLR7 ag | NPYLR7 ag max-min
CCc1ccccc1C(=O)N1C[C@@H](C(=O)O)C[C@@H](C(=O)NCc2ccccn2)C1 | 5 | 3
CC1(C)CC2CC(C)(CN2CC(=O)N2CCNC(=O)C2)C1 (stereo unspecified) | 0 | -3
O=C(NCCc1cccs1)c1ccc(Nc2cccc(C(F)(F)F)c2)nc1 | -6 | -11
CN(Cc1cccs1)c1nn2cc(C(C)(C)C)nc2s1 | 0 | 0
Cn1c(SCC(O)COCc2ccc(Cl)cc2)nnc1C1CC1 (stereo unspecified) | -3 | -4
CC(C)OCc1ccccc1CNS(=O)(=O)c1ccc(F)c(F)c1 | 6 | -19
Cc1ccc(Nc2nc(NCc3ccc4c(c3)OCO4)nc3[nH]ncc23)cc1C | 3 | 1
C=CCn1c(SCC(=O)N2CC3(C)CC2CC(C)(C)C3)nnc1C1CCCCC1 (stereo unspecified) | 1 | 8
O=C(COc1ccccc1)NCCCn1nc(-c2ccco2)ccc1=O | -2 | -3
CS(=O)(=O)NCCC(=O)NCc1cccnc1Oc1ccccc1 | -1 | -2
Cc1ccc(CNC(=O)C2CCN(S(=O)(=O)c3cccs3)CC2)cc1F | 4 | 3
CC1CCCC(C)N1C(=O)CSCc1cc2ccccc2[nH]c1=O (stereo unspecified) | -22&3 | -25&-1
O=C(CCl)Nc1ccc(Cc2ccc(NC(=O)CCl)cc2)cc1 | 1 | 0
CCCN1CC(NC(=O)CSc2nnc(C)s2)CC1=O (stereo unspecified) | 5 | -3
CCOC(=O)C1(Cc2cccc(F)c2)CCN(Cc2cnc(C)s2)CC1 | 14&-1 | 7&11
Cc1cc(C)nc(SCc2cc(=O)c(OC(=O)c3ccc(Br)o3)co2)n1 | -17 | -12
Cc1ccc(NC(=O)N(C)Cc2cccc(F)c2)c(Cl)c1 | 7 | 6
C/C(=N\Nc1nc(-c2ccccc2)c2cc(Br)ccc2n1)C(C)(C)C | 3 | -2
COc1ccc(CN(CC(C)C)C(=O)c2ccc(C(F)(F)F)cc2)cc1OS(C)(=O)=O | -3 | -2
CCOC(=O)CCC(=O)Nc1ccc(C2SCC(=O)N2c2ccccc2OCC)cc1 (stereo unspecified) | 19 | 24

A second format for part of the listing above:
CN(Cc1cccs1)c1nn2cc(C(C)(C)C)nc2s1
- NPYLR7 ag = 0
- NPYLR7 ag max-min = 0
Cn1c(SCC(O)COCc2ccc(Cl)cc2)nnc1C1CC1 (stereo unspecified)
- NPYLR7 ag = -3
- NPYLR7 ag max-min = -4
CC(C)OCc1ccccc1CNS(=O)(=O)c1ccc(F)c(F)c1
- NPYLR7 ag = 6
- NPYLR7 ag max-min = -19

Next part.
Compound | NPYLR7 ag | NPYLR7 ag max-min
COc1cccc(CCC2CCCN(C(=O)c3n[nH]c4c3CCC4)C2)c1 (stereo unspecified) | 5 | 4
O=C(C1CC2(CCNCC2)CN1)N1CCC(n2c(=O)[nH]c3ccccc32)CC1 (stereo unspecified) | 19 | 6
Cc1cc(=O)n2[nH]c(C)c(-c3ccc(F)cc3)c2n1 | 0 | 0
CC(Sc1nncn1C)C(=O)Nc1sccc1C#N (stereo unspecified) | 11 | 4
CN(C)c1ccc(NC(=O)C2CC2)cc1CN(CC1CCCO1)C(=O)c1cccs1 (stereo unspecified) | -2 | 6
Cc1ccc(-c2nc3ccccc3o2)cc1NC(=O)c1cc([N+](=O)[O-])ccc1Cl | 0 | -10
CCOC(=O)c1c(N)sc(C(=O)N2CCCCCC2)c1C | 4 | 3
CC(=O)Nc1ccc(Cl)c(C(=O)N2CCCC2c2nc(C(C)C)no2)c1 (stereo unspecified) | 9 | 8
O=c1oc2ccccc2c(O)c1Cc1cc(Cl)c2cccnc2c1O | 0 | 1
COCc1[nH]n(-c2ccc(Cl)c(Cl)c2)c(=O)c1C1=C(N2CCOCC2)C(=O)N(Cc2ccccc2)C1=O | 25 | 27
CC(C)(C)c1ccc(NC(=O)NCc2nnnn2-c2ccc(Cl)cc2)cc1 | -4 | -3
O=C(CCc1ccccc1)N1CC(=O)N2CCc3ccc(F)cc3C2C1 (stereo unspecified) | 16 | 2
CCc1[nH]nc2c1C1(c3ccccc3-c3ccccc31)C(C#N)C(=N)O2 (stereo unspecified) | 0 | -2
CC(C)c1c(C(=O)O)cnn1-c1cccc(Cl)c1 | 17&-10 | 15&-16
CN1CCN(c2nc3cc(C(F)(F)F)ccc3n3cccc23)CC1 | -2&-5 | -5&-6
COCc1nc(N2CC(n3nc(C)cc3C)C2)c2cnn(C)c2n1 | 8 | 5
CCOc1cnn(-c2cccc(Cl)c2)c(=O)c1Nc1ccc(C(=O)NCC(C)C)cc1 | 11 | 14
CCC(c1ccc(OC)cc1)N(CC)C(=O)c1cnc(-c2cccnc2)nc1 (stereo unspecified) | 21 | 9
CCN(CC)C(=O)C1(NCc2cn[nH]c2C)CCCCC1 | 5 | 5
COCCN(CC(=O)N(CCc1c[nH]c2ccccc12)Cc1ccccc1)S(=O)(=O)c1ccccc1 | 4 | 21
O=C(NCc1ccccn1)c1nn(CCc2ccccc2)c2c1CN(C(=O)c1ccccn1)CC2 | 10 | 1
O=C(CCn1c(=O)[nH]c2ccccc21)N1CCn2cncc2C1 | 18 | 7
CCN1C(=O)C(=C2SC3CS(=O)(=O)CC3S2)SC1=S (stereo unspecified) | 3 | 1
COc1cc(C)ccc1S(=O)(=O)NC(=O)C1(C)CCN1C(=O)Cc1ccccc1Cl (stereo unspecified) | 6 | 5
Clc1cccc(Cl)c1CSc1nnc(-c2ccc3c(c2)OCO3)o1 | 1 | 4
O=C(Nc1ccccc1CN1CCCC1)c1n[nH]c2ccccc2c1=O | 0 | -4
COc1cccc(CCc2ccccc2C(=O)N2CCOC(C(F)(F)F)C2)c1 (stereo unspecified) | -4 | -6
O=C(Cn1nc(-c2ccco2)c2sc(N3CCOCC3)nc2c1=O)NCc1ccccc1Cl | -5 | -10
CCOC(=O)N1CCN(C(=O)CCc2cc3c(n2-c2ccc(OC)cc2)-c2ccccc2CC3)CC1 | -4 | -6
Cc1cc(NCC2CCCNC2)nc(N2CCCCC2)n1 (stereo unspecified) | 9 | 6
Cc1cc(C(=O)N(CCN(C)C)c2nc3c(F)cc(F)cc3s2)no1 | 2 | 2
COC(=O)c1ccc(C(=O)N2CCN(C(c3ccc(Cl)cc3)c3ccc(Cl)cc3)CC2)cc1 | 6 | 7
O=P1(NN=Cc2ccccc2C(F)(F)F)C=C(c2ccccc2)OC(c2ccccc2)=C1 | 0 | 1
CC(C)n1cc2cc(NC(=O)NCC(=O)NCC(F)(F)F)ccc2n1 | 10 | 8
NC(=O)C(NS(=O)(=O)c1ccc(Cl)cc1F)c1ccccc1 (stereo unspecified) | 2 | 0
CCOC(=O)C(CC)Sc1nnc(C)c2cnn(-c3ccccc3OC)c12 (stereo unspecified) | -10 | -18
Cc1ccc(/C=C(\NC(=O)c2ccccc2)C(=O)Nc2cccc3ccccc23)o1 | 2 | 1
Cc1ccc(NC(C)(C)C(=O)N2CCC(CN)C2)cc1 (stereo unspecified) | 3 | -2
COc1ccc2nc(-c3ccc(C)c(NC(=O)Cc4ccccc4)c3)cn2n1 | -8 | -12
CC1C(=O)N(c2ccc3c(c2)CCC3)CCN1C(=O)c1ccco1 (stereo unspecified) | 1 | 6
CC1(C(=O)Nc2ccc3c(c2)OCCO3)CCN1Cc1ccc2ccccc2c1 (stereo unspecified) | -3 | -8
CC(Nc1ccncc1NC(=O)/C=C/c1cnn(C)c1)C1CCCO1 (stereo unspecified) | 9 | 4
C=CCNC(=O)C(NC(=O)c1ccc(F)cc1)C1CCN(C(=O)c2ccc(Cl)cc2)CC1 (stereo unspecified) | -6 | -6
O=C(c1ccccc1F)N(Cc1nccn1Cc1ccccc1)CC1CCCO1 (stereo unspecified) | -1 | -1
COc1ccc(NC(=O)c2ccc3nnc(C(F)F)n3c2)c(OC)c1 | -2 | 14
CCOC(=O)CCC(=O)N1CCN(C(C(=O)NCCc2ccccc2)C2CCCC2)CC1 (stereo unspecified) | -2 | -1
Cc1ccc(N2C(=O)CCS2(=O)=O)cc1S(=O)(=O)Nc1ccccc1OC(C)C | -7 | -10
Cc1noc(-c2ccco2)c1C(=O)NCc1cccc(F)c1F | 23 | 14
CCc1ccc(OCC(=O)Nc2nonc2-c2ccc(OC)cc2)cc1 | -1 | -3
COc1ccccc1OCCN1CCC(C(=O)NC(c2ccc(Cl)cc2)c2cnccn2)CC1 (stereo unspecified) | 7 | 12
CCN1CCCC1CNC(=O)CCC1CCN(C23CC4CC(CC(C4)C2)C3)CC1 (stereo unspecified) | 4 | 4
CC(c1ccccc1)N(Cc1nc(C(=O)N2CCN(C)CC2)co1)Cc1ccc(Cl)cc1Cl (stereo unspecified) | 15 | 4
Cc1ccc(NC(=O)CCN2C(=O)c3ccccc3C2=O)cc1[N+](=O)[O-] | -2 | -5
O=C(Nc1cccc(-n2cccn2)c1)C1CCCN1C(=O)c1ccccn1 (stereo unspecified) | 14 | 5
CN1CCN(c2cc(-c3ccc(CCC(=O)O)cc3)nc3ccnn23)CC1 | -3 | -8
O=S(=O)(Cc1ccc(Cl)c(Cl)c1)c1nc2ncccc2[nH]1 | 3 | -1
O=C(NNS(=O)(=O)c1ccc(F)cc1)c1ccc(COc2ccccc2)o1 | -1 | 21
CCOc1ccc2ccccc2c1C(=O)NCc1nnnn1-c1ccccc1 | -7 | -8
CC(C)c1ccc(CN2CCN(CCS(N)(=O)=O)CC2)cc1 | 1 | -8
CCc1nc2ccc(C(=O)NCCOc3ccc(OC)cc3)cn2c1N(C)C(=O)Cc1ccccc1 | 2 | 23

Continuation.
Compound | NPYLR7 ag | NPYLR7 ag max-min
COc1ccccc1-n1ccnc(SCc2cc(C)ccc2C)c1=O | 1 | 9
COc1cccc(NC(=O)C(C2CCCC2)N2CCN(C(=O)c3cccc(C)c3)CC2)c1 (stereo unspecified) | 7 | 4
CC(=O)Nc1ccccc1SCC(=O)N1CCNC(=O)C1C(C)C (stereo unspecified) | 5 | 2
Cc1c(C)n2c3c(=O)[nH]c(=O)n(C)c3nc2n1CCN1CCOCC1 | 17 | 17
Cc1noc(C)c1CC(=O)NNC(=O)C1CC1 | 9 | 3
CCN(C)C(C(=O)N1C2CCC1CC(C)(O)C2)c1ccccc1 (stereo unspecified) | 7&4 | 2&3
CCOC(=NC(=O)c1cccc(OC)c1)N(CCc1ccccc1)Cc1ccccc1 | 9 | 8
CCN(CC(=O)Nc1c(Cl)cccc1Cl)C(=O)CC1Sc2ccccc2NC1=O (stereo unspecified) | -1 | 9
CCc1ncc2c(n1)CN(C(=O)CCn1cnc3ccccc3c1=O)C2 | 10 | 6
CCOc1ccc2cc(-c3ccccn3)c(=N)oc2c1 | 1&-5 | -2&-3
COCCNCC(=O)N(CCc1c[nH]c2ccccc12)Cc1ccc(C)cc1 | -8 | -12
Cc1nn(-c2nc3ccccc3[nH]2)c2c1C(=O)CC(c1cccs1)C2 (stereo unspecified) | 6 | 6
CC1/C(=C\c2ccc(Cl)cc2)C(=O)C2CC1C2(C)C (stereo unspecified) | -4 | -7
O=C(NC1CCCNC1=O)c1cc(COc2ccc(F)cc2F)[nH]n1 (stereo unspecified) | -17 | -15
CC(C)c1ccccc1OCc1nc(C(=O)N2CCCC2)cs1 | -2 | -1
CCOc1ccc(S(=O)(=O)n2nc(C)c(S(=O)(=O)N(C)c3ccccc3)c2C)cc1 | 2 | 1
NC(CCc1ccccc1)c1csc(Nc2ccccn2)n1 (stereo unspecified) | 0 | -2
COc1ccc(C)cc1NS(=O)(=O)c1cccc(Cl)c1Cl | -13 | -13
C=CCn1c(SCc2cc(F)ccc2F)nnc1-c1ccc(OC)cc1 | -9 | -5
CCCCOc1ccc(C2=N/C(=C\c3cccc(F)c3)C(=O)O2)cc1 | 0 | -5

Single records, as listed above. Order of screens: NPYLR7 ag | NPYLR7 ag max-min
Profile of `CCc1ccc(OCC(=O)Nc2nonc2-c2ccc(OC)cc2)cc1` = -1 | -3
Profile of `CCOc1ccc(S(=O)(=O)n2nc(C)c(S(=O)(=O)N(C)c3ccccc3)c2C)cc1` = 2 | 1
Profile of `CC(C)c1ccc(CN2CCN(CCS(N)(=O)=O)CC2)cc1` = 1 | -8
Profile of `CC(Sc1nncn1C)C(=O)Nc1sccc1C#N` (stereo unspecified) = 11 | 4
Profile of `CCOc1ccc2cc(-c3ccccn3)c(=N)oc2c1` = 1&-5 | -2&-3

Additional compounds.
Compound | NPYLR7 ag | NPYLR7 ag max-min
OCc1sc2ccccc2c1Cl | -1 | 2
O=C(CCN(Cc1ccco1)c1nc(-c2cccc(Br)c2)nc2ccccc12)N1CCN(c2ccccc2F)CC1 | 8 | 19
O=C(COCc1ccccc1)N(Cc1nc2cc(Cl)ccc2o1)C1CCCC1 | -7 | -9
CN(CCOc1ccccc1)C(=O)c1ccc2cccnc2n1 | 2 | 2
NC(=O)CSc1cn(CCNC(=O)c2cccs2)c2ccccc12 | 9 | 8
Cc1cc(C(=O)Nc2cc(C(C)(C)C)nn2-c2ccc(Br)cc2)cc(Cl)n1 | 24 | 22
CCCCN(CC(=O)Nc1cc(C(C)(C)C)nn1-c1ccc(OC)cc1)C(=O)c1cccc(OC)c1 | 20 | 18
Nc1cc(-c2ccc(Cl)c(Cl)c2)nn1-c1ccc(C(=O)Nc2cccc(Oc3ccccc3)c2)cc1 | 2 | -3
CNC(=O)[C@@H]1C[C@H](N)CN1C(=O)CCCOc1ccccc1 | 6 | -4

A portion of the library. The share of hits here may be higher or lower than overall.
